Beta apoptosis – beta cell apoptosis inhibition; protection from apoptosis, % (test concentration not listed); 0.8% of 300,000 active; INS-1E cytokine-induced death, ATP luminescence, 48 h; percent of positive-control rescue, neutral wells zero;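 active = all replicates at 75% or more, or half of them and the mean; inconclusive = half reach 75% but not the mean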;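 also: 0% = cytokine-treated negative control wells and 100% = positive control rescue; higher means more ATP so stronger rescue from cytokine killing; wells of about 40 µL received 100 nL stock; the first replicate is given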
AF4-AF9 inh – blocks AF4 peptide binding to human AF9; P42568; AlphaScreen, biotin-AF4 peptide binding to FLAG-AF9; inhibition, % at 10 µM; 0.47% of 350,000 active; AID 651704;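 active = every replicate reaching a set inhibition limit, whatever the replicate mean, cut at about 25% in these data; inconclusive = mean inhibition reaches that limit but some replicates miss it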;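 also: 0% = plate neutral control median and 100% = total signal loss; the record names both 10 and 1 µM as test concentration; the first replicate is given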
T cruzi repl – T. cruzi replication inhibition. T. cruzi beta-gal in NIH3T3, luminescence, 90 h. inhibition, % (no concentration beside the values). 1.4% of 300,000 active. AID 1885;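 active = mean inhibition across valid replicates above about 55%, limit read from the data; inconclusive = mean below that limit but half or more replicates reach it; inactive = mean below it, under half of replicates reach it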;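 also: signal also drops with host cell toxicity which is not excluded here; 0% = plate median of DMSO wells and 100% = zero luminescence signal; higher percent means less beta-gal luminescence so fewer parasites; stock transfer was 50 nL into about 50 µL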
RanGTP-Impb inh – disruptors of Ran-importin-beta complex formation – biochemical, FRET, CFP-Ran, YFP-importin-beta, homogeneous, primary screen. cell-free CFP-Ran/YFP-importin-beta FRET ratio. 1.1% of 300,000 active. inhibition, % (concentration not given with the values);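 active = most replicates above 15%; inconclusive = exactly half above 15%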;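 also: 0% = DMSO wells and 100% = Ran loaded with GDP instead of GTP; wells of about 40 µL received 100 nL stock; the first replicate is given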
LANA-H2B inh – blocks KSHV LANA binding to histone H2A/H2B; cell-free LANA-H2A/H2B peptide, fluorescence polarization; 0.6% of 320,000 active; inhibition, % (test concentration not listed); Q9QR71; in the data active = inhibition mostly above about 10%, no sharp cut-off; inactive = mostly below about 6.7%;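 also: stock transfer was 7.5 nL into about 10 µL; 0% = median of vehicle wells and 100% = median of positive control wells; one replicate is shown; the record names a cut of 25% in any replicate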
Target sequence (Q9QR71 whole entry, looked up): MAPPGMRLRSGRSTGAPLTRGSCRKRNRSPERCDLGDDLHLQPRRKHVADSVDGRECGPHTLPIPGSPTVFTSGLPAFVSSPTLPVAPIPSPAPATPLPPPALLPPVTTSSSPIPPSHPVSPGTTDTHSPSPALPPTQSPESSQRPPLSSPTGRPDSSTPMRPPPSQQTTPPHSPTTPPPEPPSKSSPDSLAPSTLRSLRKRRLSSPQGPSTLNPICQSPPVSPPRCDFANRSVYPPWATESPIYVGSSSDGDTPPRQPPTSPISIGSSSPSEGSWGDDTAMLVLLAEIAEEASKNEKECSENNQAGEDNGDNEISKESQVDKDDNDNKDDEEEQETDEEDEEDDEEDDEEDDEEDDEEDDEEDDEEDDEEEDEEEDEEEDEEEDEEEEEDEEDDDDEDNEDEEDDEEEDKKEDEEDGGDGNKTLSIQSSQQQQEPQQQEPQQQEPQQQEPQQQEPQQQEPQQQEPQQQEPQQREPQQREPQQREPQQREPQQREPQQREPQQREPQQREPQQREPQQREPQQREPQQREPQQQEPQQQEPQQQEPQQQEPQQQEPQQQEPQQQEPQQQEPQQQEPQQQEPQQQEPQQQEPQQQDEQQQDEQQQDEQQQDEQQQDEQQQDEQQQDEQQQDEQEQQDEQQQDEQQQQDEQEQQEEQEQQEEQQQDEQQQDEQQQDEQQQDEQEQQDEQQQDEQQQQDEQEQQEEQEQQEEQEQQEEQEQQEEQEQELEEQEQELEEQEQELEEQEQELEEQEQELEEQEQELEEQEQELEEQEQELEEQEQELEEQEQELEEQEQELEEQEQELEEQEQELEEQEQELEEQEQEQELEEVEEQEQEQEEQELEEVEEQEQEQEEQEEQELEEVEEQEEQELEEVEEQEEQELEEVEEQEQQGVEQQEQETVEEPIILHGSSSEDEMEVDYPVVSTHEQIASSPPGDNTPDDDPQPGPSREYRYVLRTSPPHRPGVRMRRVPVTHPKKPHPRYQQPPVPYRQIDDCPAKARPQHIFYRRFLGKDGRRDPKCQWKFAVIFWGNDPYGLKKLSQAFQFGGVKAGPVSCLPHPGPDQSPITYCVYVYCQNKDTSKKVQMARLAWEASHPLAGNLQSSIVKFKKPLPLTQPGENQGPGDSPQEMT
Vif A3G – HIV-1 Vif–A3G interaction blockers – biochemical, TR-FRET, GST-Vif 1-94, biotin-A3G peptide, dose response retest, primary screen (AID 1117319) | inhibition, %, or IC50 in µM where a hit was titrated | TR-FRET GST-Vif / biotin-A3G peptide binding; higher % means a stronger effect; test concentration not given here; strong numbers were not always called active | 0.57% of 260,000 active;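 active = above the screen mean plus three standard deviations and confirmed in dose response; inconclusive = results disagree or hit not tested in dose response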;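 also: Vif residues 1-94 fused to GST binding biotinylated APOBEC3G peptide 110-148; 0% = full assay without inhibitor and 100% = GST in place of GST-Vif; retest series ran down from 100 µM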
Bfl-1 A1 inh – inhibitors of the anti-apoptotic protein A1, read as caspase activation; MEF A1-2A-BIM cells, Caspase-Glo 3/7 luminescence, 3 h; percent of clofoctol response, vehicle zero; caspase activation, % (concentration not given with the values); 0.066% of 330,000 active; AID 2462;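 active = over half of replicate activation scores above 10%, or exactly half above 10 with the replicate mean above 10; inconclusive = replicate mean below 10 yet half the replicates above 10; inactive = over half of replicates below 10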;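 also: wells of about 30 µL received 50 nL stock; many hits fall short of the cut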
Calb FLC – affects C. albicans growth with fluconazole. C. albicans CaCi-2 (fluconazole-resistant clinical isolate) + fluconazole, Alamar Blue growth, 48 h. growth inhibition, % (concentration not given with the values). 0.57% of 300,000 active. AID 1979;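 active = most replicates above 75%; inconclusive = exactly half above 75%; inactive = most below 75%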;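 also: all wells also contain fluconazole at 8 µg/ml as a sub-toxic cotreatment; 0% = median of DMSO wells and 100% = median of geldanamycin control wells; wells of about 8 µL received 7.5 nL stock; the first replicate is given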
* hit, by the source's call; u = inconclusive; x = not tested or not shown.

SMILES	Beta apoptosis	AF4-AF9 inh	T cruzi repl	RanGTP-Impb inh	LANA-H2B inh	Vif A3G	Bfl-1 A1 inh	Calb FLC
CC1(C)Cc2c(c(-c3ccccc3)nc(N3CCOCC3)c2C(N)=O)CO1	-5	x	0	1.6	3.4	19%	0.9	-5
CC(C)/C=C1\CC/C(=C\c2cccnc2)C1=O	9	-2.7	56*	1.9	0.3	-2%	0.2	2
N#Cc1c(/N=C/c2cccnc2)sc2c1CCCC2	0	0.9	15	5.0	-1.8	6%	0.9	16
Cc1ccc(C)c(S(=O)(=O)Nc2ccc3cn[nH]c3c2)c1	-3	0.8	x	x	-2.5	-12%	-0.5	x
CC(C)N(Cc1ccccc1)C(=O)COC(=O)c1cc(S(=O)(=O)N(C)C)ccc1N1CCCC1	-8	-0.4	x	x	2.3	-6%	0.5	x
CC/C(=N/Nc1ccc(Cl)cc1)c1cnnc(SC)n1	-5	x	7	-7.1	x	x	0.4	-8
COc1ccc(CNC(=S)N/N=C/c2ccncc2)cc1	-2	-5.1	19	2.8	-5.5	x	-0.2	-1
COc1ccc(-c2[nH]ncc2/C=N\NS(=O)(=O)c2ccccc2)cc1OC	-4	x	-11	2.3	-1.3	2%	-0.5	-6
Fc1ccccc1N1CCN(CCCc2ccccc2)CC1	-4	1.9	-4	-2.2	-1.9	x	-0.1	-5
Cc1c(NC(=O)c2ccccc2NC(=O)COc2ccccc2)cccc1C(=O)O	-2	-0.5	-7	-0.2	-2.1	1%	0.5	-11
Cc1c(NC(=O)Nc2ccc(F)cc2)c(=O)n(-c2ccccc2)n1C	-1	-0.9	-9	4.4	5.2	-1%	0.6	-4
CC(=O)c1c(C)oc2ccc(NS(=O)(=O)c3cccs3)cc12	1	-1.5	-4	7.7	6.7	6%	-1.6	24
Cc1cccc(NN=C2c3ccccc3-c3ccccc32)c1	-1	x	14	-1.6	-6.7	x	1.2	5
O=[N+]([O-])/C(C(Cl)=C(Cl)Cl)=C1\Nc2ccccc2O1	-1	19	8	3.3	0.3	u	0.2	13
Cc1ccc(OCC(=O)Nn2cnnc2)c(Br)c1	-3	-0.4	-5	6.3	5.5	4%	0.2	-4
CCOC(=O)C1CCCN(C(=O)c2sc3nc(C)nc(N4CCOCC4)c3c2C)C1 (stereo not drawn)	x	x	2	-1.0	3.8	23%	-0.3	13
COc1ccc(OC)c(C(=O)COC(=O)CNC(=O)C2CCCCC2)c1	-5	x	1	0.1	1.2	-11%	-0.1	-12
CC(C)(C)S(=O)(=O)c1cnc2c(-c3ccc(F)cc3)cnn2c1N	-3	x	-5	3.2	1.6	12%	0.4	-2
O=C(NCc1c(O)ccc2ccccc12)c1ccccc1	-4	-1.3	-14	u	-4.2	x	0.5	-6
COc1ccc(-n2c3c(cc(C(=O)N4CCN(CCO)CC4)c2=O)C(=O)CC(C)(C)C3)cc1	-7	x	-13	-2.2	-3.7	-7%	0.1	-15
COc1ccc(CC(=O)OCC(=O)NC(=O)NC2CCCCC2)cc1	-2	x	1	-1.3	-0.8	12%	-0.6	-8
OC(Cn1cnnc1)c1ccccc1 (stereo not drawn)	-4	1.0	-15	-0.3	0.6	x	-0.7	-13
O=C(NCCCn1ccnc1)c1ccc(N2CCCCCC2)c([N+](=O)[O-])c1	95*	3.7	16	0.2	3.0	-12%	0.7	12
COC1CCCCC1Nc1cccc(SC)c1 (stereo not drawn)	-5	x	-13	-2.7	-0.2	3%	u	3
CC(C)NC(=O)NC(=O)COC(=O)c1cc(S(=O)(=O)N2CCCCC2)ccc1N1CCOCC1	x	0.2	23	-1.7	4.5	x	0.9	-1
CC(CCc1ccccc1)NC(=O)C1CCN(S(=O)(=O)N2CCOCC2)CC1 (stereo not drawn)	-1	x	4	4.2	4.1	-4%	-0.3	5
Cc1cccc(C(=O)NC(NCc2ccco2)C(Cl)(Cl)Cl)c1 (stereo not drawn)	x	x	-7	-1.1	-4.0	28%	0.9	-10
O=C(C(=O)N1CCCc2ccccc21)c1c[nH]c2ccccc12	-11	11	-10	-2.3	-3.9	9%	1.9	13
COc1ccc(Br)c(OC)c1C(=O)NC(=O)Nc1c(F)cccc1F	-3	-5.0	6	2.6	-2.0	-2%	-0.6	-1
COc1ccc2cc3cc(C(=O)NCCc4ccc(OC)c(OC)c4)oc3nc2c1	10	x	1	6.5	-2.4	-3%	-1.0	5
CC(C)(O)c1cc2ccccc2c(=O)o1	5	-0.5	x	x	-3.0	x	-1.0	x
CC(C)N1CCN(Cc2ccoc2)CC1CCO (stereo not drawn)	x	-1.7	-23	-1.5	-0.7	x	-1.0	-1
CCOC(=O)Cc1csc(NC(NC(=O)CC)(C(F)(F)F)C(F)(F)F)n1	-2	x	x	9.1	2.3	25%	0.3	-2
COc1ccc(C2CC(c3ccc(Br)cc3)=NN2C(=O)CCC(=O)O)cc1OC (stereo not drawn)	-7	2.9	-8	-4.9	4.8	x	0.4	-4
COc1ccc(-c2noc(CN3CCCCC3)n2)cc1OC	-11	x	6	0.3	2.3	-1%	0.6	-9
N#C/C(=C/c1ccc(O)cc1)C(=O)NCc1ccc(Cl)cc1	-9	-2.1	-13	5.7	2.9	x	-0.2	0
Cc1ccc(NC(=O)CN(C)C(=O)c2cccc(S(=O)(=O)N3CCc4ccccc43)c2)cc1	0	0.3	x	x	2.9	4%	-0.5	x
O=C(Nc1ccc(-c2nc3ncccc3o2)cc1)c1ccco1	4	x	1	0.1	-4.4	-1%	-2.3	1
CCOc1ccc(CN(CCO)CCO)cc1[N+](=O)[O-]	4	x	-32	u	4.8	7%	-0.1	-2
CCOc1ccc(N2CC(C(=O)Nc3cc(Cl)ccc3-n3cncn3)CC2=O)cc1 (stereo not drawn)	x	-4.1	-2	-0.8	-1.8	-6%	-0.4	1
CCN1CCN(C(=O)C2CC(=O)N(c3ccc(Cl)cc3)C2)CC1 (stereo not drawn)	-5	-1.2	-3	-1.3	-2.0	x	-0.9	7
O=C(CS(=O)(=O)c1cccc(C(F)(F)F)c1)Nc1ccccc1Cl	-19	x	-7	3.5	-0.2	0%	0.8	-1
CCOc1ccc2nc(NC(=O)CN3C(=O)C4CCCCC4C3=O)sc2c1 (stereo not drawn)	-10	6.5	-7	1.3	-3.4	7%	0.3	3
CCCCCCC(=O)N/N=C/c1ccco1	-3	x	-5	3.2	5.0	-7%	0.8	2
Cc1ccc(NC(=O)CCC(=O)NNC(=O)CCc2ccccc2)c(C)c1	-1	2.8	x	x	-4.6	1%	-0.6	5
O=S(=O)(Cc1ccccc1Cl)N1CCN(Cc2ccc3c(c2)OCO3)CC1	x	x	20	1.4	-0.1	20%	0.0	-37
CC(C)C[C@H](NC(=O)c1[nH]cnc1C(=O)N[C@@H](Cc1ccccc1)C(=O)OC(C)(C)C)C(=O)OCc1ccccc1	4	3.6	22	0.7	4.1	x	-0.2	-7
CN1CCN(C(=O)CCN2C(=O)/C(=C\c3ccc(F)cc3)SC2=S)CC1	1	1.1	x	x	-4.1	6%	-0.2	x
O=C(NCc1ccccc1)C1=C[C@H](C2CCCCC2)C[C@H](OCCCCO)O1	4	-14	20	u	-3.1	x	1.2	-17
CC(=O)Nc1ccc(-c2csc(Nc3ncccn3)n2)cc1	-2	-6.6	-8	5.0	2.2	u	-4.1	-21
O=C(O)c1cccc(S(=O)(=O)Nc2cccc(S(=O)(=O)N3CCCCCC3)c2)c1	-10	-1.4	3	-3.2	-0.3	4%	0.6	-2
COc1ccc(CCNc2ccc(C(CC(N)=O)NC(=O)Cc3ccc(Br)cc3)cc2[N+](=O)[O-])cc1 (stereo not drawn)	-11	4.8	-15	-9.1	0.3	x	0.2	-11
COC(=O)/C(C#N)=C/c1c(Oc2cc(C)cc(C)c2)nc2ccccn2c1=O	5	x	-4	-7.8	-3.5	-1%	0.9	-1
COc1ccc(NC(=O)CCC(=O)c2cccs2)cc1S(=O)(=O)Nc1ccccc1Cl	1	x	8	0.6	-3.3	2%	-0.1	-5
Cc1ccccc1S(=O)Cc1ccc(C(=O)NCCCN2CCCCC2)o1 (stereo not drawn)	-8	-0.1	-10	-3.0	10	x	-0.3	-6
COc1ccc(N(CC(=O)NCC2CCCO2)C(=O)CCC(=O)Nc2nccs2)cc1 (stereo not drawn)	-7	x	-9	-4.0	-1.9	30%	-0.4	-6
CCOC(=O)c1nc(S(C)(=O)=O)ncc1Cl	x	-2.8	21	-2.3	0.9	11%	-1.2	-6
O=C(O)CC1(CC(=O)N2CCC(C(=O)O)CC2)CCCC1	-3	0.2	-7	-2.6	-0.7	x	-0.2	44
Cc1[nH]ccc(=O)c1OCc1ccccc1	-2	x	-2	-1.4	-0.7	6%	0.0	24
O=C(c1cccs1)N1CCC(c2nc3c(nnn3Cc3ccccc3)c(=O)[nH]2)CC1	-4	x	-6	1.3	8.0	4%	-0.2	44

Continued:
SMILES	Beta apoptosis	AF4-AF9 inh	T cruzi repl	RanGTP-Impb inh	LANA-H2B inh	Vif A3G	Bfl-1 A1 inh	Calb FLC
CCOC(=O)NC1(C(F)(F)F)C(=O)N(Cc2ccccn2)C2=C1C(=O)CC(C)(C)C2 (stereo not drawn)	0	x	5	-0.4	-0.2	2%	0.5	-16
O=C(Cn1cc(C(F)(F)F)cc(Cl)c1=O)NCc1ccc(Cl)cc1	-1	-1.8	-1	-1.7	-8.8	x	0.3	0
CCC(=O)Nc1nnc(SCC(=O)Nc2ccc3c(c2)OCCO3)s1	x	-11	2	0.9	1.6	x	2.1	4
CC(=O)Nc1ccc(/C=N\NC(=O)CNS(=O)(=O)c2ccc([N+](=O)[O-])cc2)cc1	-4	1.1	-2	-0.9	1.5	x	0.4	u
Cc1ccc(NC(=S)NCCC(c2ccccc2)c2ccccc2)c(C)c1	5	x	37	-1.7	-2.8	24%	-0.1	-20
COc1ccc(OC)c(C(C)NC(=O)C23CC4CC(CC(C4)C2)C3)c1 (stereo not drawn)	-11	2.7	13	0.6	4.8	x	0.3	-4
O=C(COC(=O)c1ccc([N+](=O)[O-])o1)Nc1cccc2ccccc12	4	-1.9	1	1.3	-0.6	0%	0.4	-39
CN1CC(=O)Nc2ccccc2C1=O	-5	1.2	-22	-1.6	-1.9	-9%	-0.3	-9
CCOC(=O)c1ccc(NC(=O)c2ccco2)cc1	4	2.6	-5	-5.8	-1.4	2%	-3.3	16
COc1ccc(C2C(C#N)=C(N)Oc3c2sc2nc(C)cc(C)c32)cc1 (stereo not drawn)	12	x	36	2.4	5.6	7%	-0.1	16
CCN1C(=O)/C(=C\N(C(C)=O)c2ccccc2)OC1=S	-1	x	15	3.5	2.9	-3%	-1.3	5
CN(C)CCCN(Cc1ccccc1)C(=S)Nc1ccc(OC(F)F)cc1	-10	x	-16	18*	-9.4	15%	0.4	-2
CC(C)NC(=O)C(=O)Nc1ccc2c(c1)N(S(=O)(=O)c1cccs1)CCC2	4	-0.8	3	-0.5	-0.7	4%	0.5	12
C=CCNC(=S)N/N=C/c1ccc(N(CC)Cc2ccccc2)cc1	61	x	53	-2.8	-0.1	-8%	u	24

Source: PubChem (several laboratories)
